StopGo reporter: High Throughput Screening for Foot and Mouth Disease Virus Antivirals; human cells with a luciferase reporter of 2A StopGo recoding; control for the full effect not named in the record; Potency, µM (series often up to 57.9 µM), for the others: top-dose signal change, negative = less light; hit rate 1.2% among 410,000; AID 1159524, 2015; active = well fitted falling curve with a large enough effect; inconclusive = small, poorly fitted or top-dose-only effect; inactive = no such curve, though single readings can be large or run the other way; tested in HEK293T cells; note: % is set by controls: 0 for no effect and ±100 for the full control effect; nearly all actives have a fitted effect of over 45% in size; luciferase light after 4 h
Cruzain inh noDet: qHTS Assay for Promiscuous and Specific Inhibitors of Cruzain (without detergent); AID 1476, 2009; hit rate 2.3% among 200,000; Potency, µM, for inactives: max response, negative = inhibition, most hits filed as inhibitors; Cruzipain (Trypanosoma cruzi), P25779; purified cruzain, Z-FR-AMC fluorescence, no detergent;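 note: plate controls were enzyme without inhibitor for no effect and buffer without enzyme for full effect; nearly all actives have a fitted effect of over 40% in size; top concentration of the series not given in the record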
Target sequence (P25779 123-467 limits assumed): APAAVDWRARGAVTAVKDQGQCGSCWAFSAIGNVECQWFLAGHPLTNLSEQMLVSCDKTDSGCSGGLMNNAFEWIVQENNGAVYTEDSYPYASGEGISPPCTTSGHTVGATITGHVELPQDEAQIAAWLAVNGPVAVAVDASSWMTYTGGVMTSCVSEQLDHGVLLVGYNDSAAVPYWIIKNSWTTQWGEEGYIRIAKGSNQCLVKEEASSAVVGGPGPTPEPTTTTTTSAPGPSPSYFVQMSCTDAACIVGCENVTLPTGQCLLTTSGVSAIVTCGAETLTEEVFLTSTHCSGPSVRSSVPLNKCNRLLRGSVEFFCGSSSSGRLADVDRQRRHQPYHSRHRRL
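Purified cruzain at 1.5 nM, pre-incubated 15 min with compound at room temperature in 100 mM sodium acetate pH 5.5, 5 mM DTT, 0.00005% Triton X-100. Reaction started with 2 uM Z-FR-AMC; AMC fluorescence increase over 60 s gives rate.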
SARS PLP yeast: qHTS of Yeast-based Assay for SARS-CoV PLP. Potency, µM (titrated, usually from 32.9 µM), inactives show at the top dose activity, positive = growth rescue. hit rate 0.19% among 330,000. S. cerevisiae expressing SARS-CoV PLpro, growth rescue; control for the full effect not named in the record; active means well fitted rising curve with a large enough effect; inconclusive means small, poorly fitted or top-dose-only effect; inactive means no such curve, though single readings can be large or run the other way; note: 0% is about no effect; nearly all actives have a fitted effect of over 55% in size; growth read by luminescence after 48 h
Cruzain inh Det: qHTS Assay for Promiscuous and Specific Inhibitors of Cruzain (with detergent) | Cruzipain (Trypanosoma cruzi), P25779 | purified cruzain, Z-FR-AMC fluorescence, 0.01% Triton | Potency, µM, for inactives: max response, negative = inhibition, actives largely listed as inhibitors | hit rate 0.43% among 200,000 | AID 1478, 2009;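 note: plate controls were neutral wells for no effect and buffer without enzyme for full effect; nearly all actives have a fitted effect of over 40% in size; top concentration of the series not given in the record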
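Sodium acetate buffer (100 mM, pH 5.5) containing 5 mM DTT and 0.01% Triton X-100 hosted 1.5 nM cruzain and test compound for 15 min at room temperature. Cleavage of 2 uM Z-FR-AMC was then tracked by fluorescence.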
LASV entry inh: qHTS for Inhibitors of binding or entry into cells for Lassa Virus. Lassa virus pseudotype entry inhibition, cell reporter; control for the full effect not named in the record. Potency, µM (doses to about 37.9 µM), for the others: top-dose activity change, negative = inhibition, hits mostly inhibitors. hit rate 1.2% among 300,000. AID 540256, 2011; active means well fitted inhibition curve with a large enough effect; inconclusive means small, poorly fitted or top-dose-only effect, or effect the other way; inactive means flat fitted curve, though single readings scatter; tested in HEK293 cells; note: % is set by controls: 0 for no effect and ±100 for the full control effect; nearly all actives have a fitted effect of over 50% in size; luciferase read-out
RE007 growth inh: qHTS Assay for Inhibitors of the HIV-1 protein Vpr | S. pombe RE007 Vpr strain, BacTiter-Glo ATP luminescence, 24 h; control for the full effect not named in the record | Potency, µM (highest dose often 92.2 µM), for the others: at the highest dose activity change, negative = less growth | hit rate 0.21% among 360,000 | AID 651644, 2012; active = well fitted falling curve with a large enough effect; inconclusive = small, poorly fitted or top-dose-only effect; inactive = no such curve, though single readings can be large or run the other way;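 note: % is set by controls: 0 for no effect and ±100 for the full control effect; nearly all actives have a fitted effect of over 50% in size; the assay follows cell death caused by Vpr and the record does not say whether a fall means rescue or toxicity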
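Fission yeast RE007 carrying one integrated HIV-1 vpr copy, seeded at OD 0.01 in PMG+AL medium with 23 nL pinned compound. Grown 24 h at 30 degrees; viability read by BacTiter-Glo luminescence after 5 min.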
MARV entry inh: qHTS for inhibitors of binding or entry into cells for Marburg Virus; hit rate 1.8% among 300,000; Marburg virus pseudotyped entry inhibition, cell reporter; control for the full effect not named in the record; about a third of the inactives were read at about 46 µM; AID 540276, 2011; Potency, µM (titrated, usually from 37.8 µM), without a hit: at the top dose activity change, negative = inhibition, hits mostly inhibitors; active = well fitted inhibition curve with a large enough effect; inconclusive = small, poorly fitted or top-dose-only effect, or effect the other way; inactive = flat fitted curve, though single readings scatter; tested in HEK293 cells; about a fifth of its hits are not listed in these tables; note: % is set by controls: 0 for no effect and ±100 for the full control effect; luciferase read-out
NS1 function inh: qHTS Assay for Inhibitors of Influenza NS1 Protein Function; S. cerevisiae slowed by influenza A NS1, growth recovery by OD600; Potency, µM (top dose mostly 46.1 µM), for the others: at the top dose activity, positive = more growth; hit rate 0.4% among 270,000; AID 2326, 2010; active means well fitted rising curve with a large enough effect; inconclusive means small, poorly fitted or top-dose-only effect; inactive means no such curve, though single readings can be large or run the other way; note: nearly all actives have a fitted effect of over 50% in size
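In this qHTS, NS1 from influenza A is expressed in budding yeast, where it slows growth. Cells are switched from glucose to 2% galactose medium (pH 6.0, -URA), treated with compound, and growth recovery is read at OD600.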
Active calls of the source: *; ? = inconclusive; . = no result given; [ ] = remark or other dose. Unless noted, calls come from the whole dose curve; as a rule, active = well fitted curve in the direction sought with a large enough effect; inconclusive = small, poorly fitted or top-dose-only effect, or another doubt; inactive = no such curve, though single readings can be large; an effect the other way counts as inactive or inconclusive. Potency is the fitted concentration of half-maximal effect.

compound	StopGo reporter	Cruzain inh noDet	SARS PLP yeast	Cruzain inh Det	LASV entry inh	RE007 growth inh	MARV entry inh	NS1 function inh
COc1cccc(C(=O)NC2CC3CCCC(C2)N3CC(=O)Nc2ccccc2)c1 (stereo not drawn)	?	9%	10%	5.9%	0%	2%	?	-16%
Cc1nc2ccc(NC(=O)c3ccco3)cc2nc1C	-22%	.	12%	.	.	-12%	.	-5%
COc1cc(NC(=O)c2ccccc2)c(OC)cc1NC(=O)Cc1ccc(C)cc1	1%	.	-1%	.	-11%[46.1 µM]	-11%	?	7%
COc1ccc(C(=O)COC(=O)c2ccccn2)c(OC)c1	28%	.	-6%	.	?	-4%	29%[46.1 µM]	.
N#CC1=C(N)Oc2c(O)cc3ccccc3c2C1c1ccsc1 (stereo not drawn)	?	-1%	4%	-13%	?	-2%	-11%[46.1 µM]	7%
COc1ccc2c(c1)NC(C)(C)C=C2C	-7%	.	-4%	.	1%	-16%	-14%[46.1 µM]	.
CCCN=C(N)/C(C(=O)OCC)=C(\O)c1ccc(OC)cc1	17%	-1%	-12%	-5.4%	-16%	8%	1%	-6%
CC(C)CNC(=S)N1CCN(c2nc3ccccc3s2)CC1	?	.	0%	.	.	4%	.	-5%
COc1ccc(OC)c(NC(=O)CSc2nnc(CNC(=O)c3cccs3)o2)c1	4%	.	3%	.	8%[46.1 µM]	2%	-15%[46.1 µM]	17%
O=C(C[C@H]1C[C@H](C(=O)N2CCCCC2)[C@@]2(CCc3ccccc3)c3[nH]c4ccc(Cl)cc4c3CCN2C1=O)NCc1cccc(C(F)(F)F)c1	0%	.	6%	.	.	-6%	0%	.
CCN(CC)S(=O)(=O)c1ccc(OC)c(NC(=S)Nc2cccc(C)c2)c1	.	-1%	0%	-8.2%	-4%	.	-26%	22%
Cc1ccc(NC(=O)COc2ccc(C(=O)c3ccccc3)cc2)c(O)c1	-25%	.	-2%	.	?	-4%	?	3%
O=c1c2[nH]c3ccccc3c2ncn1CCN1CCOCC1	12%	-15%	-1%	-3.3%	7%	-2%	?	5%
Cc1cccc(CNC(=O)CCn2c(=O)c3cccn3c3ccc(F)cc32)c1	-10%	10%	.	-4.2%	5%[46.1 µM]	.	.	.
CCOC(=O)c1c(NC(=O)COC)sc(C)c1C	-10%	?	4%	-4.9%	-13%	-20%	7%	-11%
COc1cc(/C=N/NC(=O)c2ccoc2C)ccc1O	61%[activator]	2%	?	-5.8%	17%	14%	?	-6%
O=C(c1ccc([N+](=O)[O-])cc1)N1CCN(c2cccc3[nH]ccc23)CC1	-6%	.	-2%	.	.	-1%	.	0%
NC(=O)C1CCN(c2oc(/C=C/c3ccc(F)cc3)nc2S(=O)(=O)c2ccccc2)CC1	2%	.	3%	.	.	4%	.	-15%
CCCCc1nnc(NC(=O)c2ccc3c(=O)n4c(nc3c2)CCC4)s1	-1%	.	-4%	.	-2%	1%	-1%[46.1 µM]	.
COc1ccc(OC)c(C2=NOC(C(=O)NCc3ccccn3)C2)c1 (stereo not drawn)	?	1%	-6%	6.2%	0%	3%	0%	-2%
O=C(CSc1nnc2ccccn12)NCc1cccs1	-3%	-2%	12%	-0.4%	6%	-3%	6%	-2%
CCCc1cc(C(=O)NNC(=S)NC2CCCCC2)cs1	15%	.	?	.	25%[46.1 µM]	2%	13%[46.1 µM]	3%
CS(=O)(=O)N(CC(O)CON=C1c2ccccc2-c2ccccc21)c1ccc(F)cc1 (stereo not drawn)	.	?	.	-6.0%	4%	10%	?	-2%
C=CCn1c(SCc2cccc3ccccc23)nnc1-c1cccnc1	-17%	8%	-6%	-1.7%	-15%	-6%	-28%	-136%
N#C/C=C/N1CCC(Cc2ccccc2)CC1	1%	.	-2%	.	10%	-11%	-11%[46.1 µM]	10%
Clc1ccc(CN2CCN(c3ncccn3)CC2)cc1	-25%	.	1%	.	9%	1%	-6%	-3%
O=C1C2CCCN2C(=O)N1CCCN1CCN(c2ccc([N+](=O)[O-])cc2)CC1 (stereo not drawn)	-16%	.	?	.	-6%	-7%	-3%	2%
Cc1ccc(S(=O)(=O)N2CCOCC2)cc1NC(=O)COC(=O)c1ccc2c(c1)OCO2	-16%	.	1%	.	-14%[46.1 µM]	62%	-5%	.
CC12CN3CC(C)(CN(C1)C3c1ccc(Cl)cc1Cl)C2=O (stereo not drawn)	-12%	8%	3%	-1.9%	.	-11%	.	5%
CCOC(=O)C1CCCN(C2=NC(=O)/C(=C/c3ccc(O)c(OCC)c3)S2)C1 (stereo not drawn)	-12%	.	-2%	.	?	7%	-18%[46.1 µM]	-15%
COc1ccc(S(=O)(=O)N2CCN(Cc3nc4ccc(C)cc4o3)CC2)cc1	-13%	15%	.	-5.0%	?	.	.	.
CCOc1ccc(N=C(NC#N)SC)cc1	11%	1%	6%	0.8%	-5%	19%	-2%	-21%
O=C1CC2(CCN(C(=O)c3c(F)cccc3F)CC2)Oc2ccccc21	?	.	0%	.	-3%	21%	-15%	.
CC(=O)Nc1ccc(S(=O)(=O)Nc2nccc(/C=C/c3ccccc3F)n2)cc1	1%	.	1%	.	-28%	15%	-13%[46.1 µM]	2%
O=C(COC(=O)C1(c2ccccc2F)CCCC1)NCc1cccs1	-24%	.	0%	.	?	22%	?	.
COc1ccc(Cc2nnc(N/N=C(\C)c3ccccc3)[nH]c2=O)cc1OC	-10%	.	2%	.	.	10%	.	-2%
Cc1ccccc1NC(=O)C(=O)NCC1CCCN1S(=O)(=O)c1cccs1 (stereo not drawn)	28%	.	-5%	.	-25%[46.1 µM]	-21%	26%	.
O=C(CN1C2=NCCN2c2ccccc21)c1ccc2c(c1)OCO2	.	-8%	0%	-2.6%	2%	-26%	?	-1%
O=C(c1cc2nc(-c3ccc(F)cc3)cc(C(F)(F)F)n2n1)N1CCCC1	.	6%	-4%	-0.8%	.	.	5%	9%
Cc1ccc(NC(=O)COC(=O)C(CC(C)C)N2C(=O)C3CC=CCC3C2=O)c(C)c1 (stereo not drawn)	-2%	8%	2%	25µM*	12%	.	11%	-3%
Nc1nc(=S)c2ncn(C3OC(CO)C(O)C3O)c2[nH]1 (stereo not drawn)	-5%	.	3%	.	20%	-2%	?	6%
O=C(COc1ncnc2sccc12)NC1CCCc2ccccc21 (stereo not drawn)	-17%	-6%	-8%	-1.3%	9%	22%	12%	6%
COC(=O)COc1ccc2oc(-c3ccc(OC)cc3)cc(=O)c2c1	33%[activator]	-8%	.	-1.2%	21%[46.1 µM]	.	?	.
CS(=O)(=O)Nc1ccccc1C(=O)NCC1(N2CCCCC2)CCCCC1	-3%	.	-1%	.	7%[46.1 µM]	-6%	?	6%
Cc1c(NC(=O)CN2C(=O)NC(C)(c3ccc(OC(F)F)cc3)C2=O)c(=O)n(-c2ccccc2)n1C (stereo not drawn)	-13%	.	2%	.	16%	7%	1%	.
O=C(Nc1ccccc1F)NC1CC1	40%[activator]	.	5%	.	9%	4%	-2%[46.1 µM]	.
O=C(CCCCCCCC(=O)c1ccccc1)c1ccccc1	0%	.	1%	.	.	20%	.	-4%
COc1ccc(C)cc1NC(=O)c1ccoc1C	-12%	-17%	1%	-1.2%	11%	-10%	15%	-49%
CCOc1ccc(NC2=NCCCS2)cc1	16%	.	7%	.	1%	-20%	6%[46.1 µM]	-1%
O=C(CCNS(=O)(=O)c1ccc(Br)s1)NCc1ccc(F)cc1	19%	.	1%	.	-5%	16%	12%	.

Next section
compound	StopGo reporter	Cruzain inh noDet	SARS PLP yeast	Cruzain inh Det	LASV entry inh	RE007 growth inh	MARV entry inh	NS1 function inh
O=C(N/N=C/c1ccncc1)c1cccs1	35%[activator]	.	-1%	.	.	-11%	.	-11%
O=C(/C=C/c1c(Cl)cccc1Cl)NCc1ccco1	16%	-21%	9%	-1.7%	5%	6%	?	1%
Cc1cccc(CC(=O)Nc2c(C(=O)Nc3cccc(F)c3)oc3ccccc23)c1	7%	-6%	.	-5.5%	2%[46.1 µM]	.	-2%[46.1 µM]	.
O=C(COC(=O)c1ccc[nH]c1=O)NCCc1ccc(F)cc1	-12%	.	0%	.	22%	-8%	-5%[46.1 µM]	.
COC(=O)Nc1nc(-c2cc(Cl)ccc2Cl)cs1	-11%	.	0%	.	-2%	1%	2%	.
Cc1ccc2c(c1)NC(=O)C(N1CCOCC1)(C(F)(F)F)O2 (stereo not drawn)	-13%	3%	-7%	4.9%	-5%	-7%	-14%	-4%
COc1ccc(CCNC(=O)CCSc2nc(-c3ccco3)cc(C(F)(F)F)n2)cc1OC	-28%	?	-2%	-2.4%	-17%	22%	?	-9%
CCNc1ccccc1C(=O)O	-19%	.	0%	.	.	-2%	.	3%
Cc1nn(-c2ccc(Cl)cc2)c2sc(C(=O)c3c(N)n(C)c(=O)n(C)c3=O)cc12	4%	4%	-15%	-3.7%	0%	14%	1%	-23%
O=C(CCN1C(=O)C2CC=CCC2C1=O)Nc1cc(C(F)(F)F)ccc1N1CCCC1 (stereo not drawn)	-30%	.	-4%	.	-17%	5%	5%	.
CC(C)CN(C(=O)COC(=O)C(C)N1C(=O)c2ccccc2C1=O)c1c(N)n(Cc2ccccc2)c(=O)[nH]c1=O (stereo not drawn)	-8%	.	5%	.	-8%	-4%	-2%	.
COc1ccc(Cl)cc1NC(=S)NNC(=O)C1(C)CC1(Cl)Cl (stereo not drawn)	-10%	.	0%	.	26%[46.1 µM]	1%	-4%[46.1 µM]	4%
C=CCO/N=C(\C)c1c(O)c(C)c(-c2ccccc2)n(-c2ccccc2)c1=O	-3%	10%	-78%	-8.1%	-24%	4%	-6%	-23%

Bioassay records from PubChem BioAssay.
